From PubChem BioAssay
PINK1 expr mod: modulators of PINK1 expression; AID 624263; actives 0.2% (n = 410,000); PINK1 immunofluorescence, high-content cytometry, 24 h; Potency, µM (highest dose often 76.6 µM), for the others: at the highest dose activation (PINK1 increase), usual class: activators; active = well fitted activation curve with a large enough effect; inconclusive = small, poorly fitted or top-dose-only effect; inactive = flat fitted curve, though single readings scatter; cell line not stated here;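 note: % of control where 0% means no effect; nearly all actives have a fitted effect of over 65% in size; a mitochondrial uncoupler was the plate control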
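A stable cell line was treated with compounds at 5 concentrations for 24 hours, with CCCP as control. PINK1 levels and mitochondrial localization were measured by immunofluorescence with mitochondrial, cell and nuclear markers after fixation, read by laser-scanning cytometry.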
The depositor's hits bear a star; u = inconclusive. Potency is the fitted concentration of half-maximal effect.

Compound | PINK1 expr mod
COc1cc(OC)c(NC(=O)CCCn2nc(C)c3sc4ccccc4c3c2=O)cc1Cl | 0.6%
Cc1nn2c(=O)cc(COc3ccc(/C=C(\C#N)C(=O)Nc4ccccc4C)cc3)nc2s1 | 5.4%
CCCSc1ncc(Cl)c(C(=O)Nc2sc(C(C)=O)c(C)c2C(=O)OCC)n1 | -0.7%
COc1cccc(CNC(=O)CCCN2C(=O)CSc3c2c(C)nn3-c2ccccc2)c1OC | -0.1%
CC(C)Oc1ccc(CNC(=O)c2ccc3c(c2)N(C)C(=O)C2CCCCN32)cc1 (stereo unspecified) | 0.5%
Cc1ccc(NC(=O)Cn2c(=O)n(CCC(=O)NCc3ccccc3Cl)c(=O)c3ccccc32)cc1 | 8.0%
O=C1COc2ccc(-c3cc(-c4ccc(Cl)cc4)c4c(n3)-c3ccccc3OC4)cc2N1 | -0.5%
Cc1ccc(N(C)S(=O)(=O)c2c(-c3ccccc3)csc2C(=O)O)cc1 | 3.3%
O=C(NCCc1csc(-c2ccc(F)cc2)n1)c1c(F)cccc1Cl | -1.1%
O=C(c1ccc(Cl)cc1)N1CCC(c2nc3ccccc3o2)CC1 | -0.9%
CC1CCN(S(=O)(=O)c2ccc3c(ccc(=O)n3CC(=O)NCc3ccccc3Cl)c2)CC1 | -4.3%
COc1cccc(NC(=O)C2CCN(S(=O)(=O)c3ccc4[nH]c5c(c4c3)CCCCC5)CC2)c1 | 2.2%
CCOC(=O)c1[nH]c(C)c(CCC(=O)NCc2ccc(N(C)C)cc2)c1C | -1.0%
CCCN(CCC)CCCNC(=O)c1cnn(-c2ccc(F)cc2)c1-n1cccc1 | -1.0%
Cc1cc(C)cc(Nc2nc3ccccc3n3cnnc23)c1 | -0.4%
O=C(C1CCN(S(=O)(=O)Cc2ccccc2)CC1)N1CCN(c2ccc(F)cc2)CC1 | 1.4%
COc1ccccc1NC(=O)CSC1=Nc2ccccc2C2=NC(CCC(=O)NCCc3ccccc3)C(=O)N12 (stereo unspecified) | 1.1%
COc1cc(C(=O)Nc2nonc2-c2ccc(C)c(C)c2)cc(OC)c1OC | 10.0%
COC(=O)c1cc2sc(Cl)cc2n1CC(=O)Nc1cc(C)cc(C)c1 | 4.1%
CCOC(=O)c1c(C)[nH]c(C)c1S(=O)(=O)N1CCCC(C(=O)N2CCN(c3cccc(C)c3C)CC2)C1 (stereo unspecified) | -0.8%
CCn1c2ccccc2c2cc(CN3CCN(Cc4ccc(Cl)cc4)CC3)ccc21 | 12%
Cc1ccc2c(=O)cc(C(=O)Nc3ccc(S(=O)(=O)N4CCCCC4)cc3)oc2c1C | u
Cc1ccc(/C=C/c2onc(C)c2S(=O)(=O)N2CCC(C(=O)N3CCN(c4ccccc4F)CC3)CC2)cc1 | 0.3%
COc1ccc(OC)c(NC(=O)c2cc3c(n(-c4ccc(Cl)cc4)c2=O)CC(C)(C)CC3=O)c1 | 2.1%
COc1ccc(-c2cn3c(n2)sc2cc(C(=O)NCCCc4ccccc4)ccc23)cc1 | 3.1%

2 entries drawn at random from those above, as already listed:
Compound | PINK1 expr mod
CCOC(=O)c1c(C)[nH]c(C)c1S(=O)(=O)N1CCCC(C(=O)N2CCN(c3cccc(C)c3C)CC2)C1 (stereo unspecified) | -0.8%
Cc1ccc(NC(=O)Cn2c(=O)n(CCC(=O)NCc3ccccc3Cl)c(=O)c3ccccc32)cc1 | 8.0%

Further records:
Compound | PINK1 expr mod
CCCN1C(C(=O)c2ccccc2)=C(OC(=O)C(C)(C)C)c2ccccc2S1(=O)=O | 3.9%
COc1cccc(NC(=O)c2oc3ccccc3c2NC(=O)COc2ccccc2C)c1 | 5.9%
COc1ccc(NC(=O)C2=C(C)Nc3c(C(=O)Nc4ccc(C)cc4)cnn3C2c2cccc(Cl)c2)cc1 (stereo unspecified) | u
Fc1ccc(F)c(Nc2c3c(nc4ccc(Cl)cc24)CCC3)c1 | 7.2%
Cc1ccccc1NC(=O)C(=O)NCC1(c2ccccc2)CCCC1 | 2.6%
CC(=O)Nc1ccc(NC(=O)c2ncoc2-c2ccco2)cc1 | 0.1%
COc1ccc2c(C)c(CCC(=O)NCCc3ccccc3OC)c(=O)oc2c1 | 1.2%
COc1ccc(C)cc1Nc1nc2cc(Cl)c(Cl)cc2nc1-n1nc(C)cc1C | 9.2%
CCOc1cc(S(=O)(=O)n2ccnc2C(C)C)ccc1Cl | 1.9%
CCC(C)NC(=O)c1ccccc1NC(=O)CN1C(=O)c2cccc3cccc1c23 (stereo unspecified) | 1.6%
Cc1ccc(NS(=O)(=O)c2cnc(N)nc2)c(C)c1 | -1.2%
Cc1cc(C)c(Cn2c3ccccc3c3cnn(CC(=O)NCC(C)c4ccccc4)c(=O)c32)c(C)c1 (stereo unspecified) | 0.5%
COc1cccc(NC(=O)C2CCCN2S(=O)(=O)c2ccc3nc(-c4ccccc4)[nH]c3c2)c1 (stereo unspecified) | 3.4%
CCOc1ccc(C(=O)Nc2cccc(C(=O)OCc3cc(=O)n4cc(C)sc4n3)c2)cc1 | 0.2%
CCOc1ccc2nc(N3CCN(C(=O)CS(=O)(=O)c4ccc(F)cc4)CC3)sc2c1 | 2.4%
Cc1ccc(OCCSc2nc(C)c(Cc3ccccc3)c(=O)[nH]2)cc1 | -1.1%
Cc1ccc(Cl)cc1-n1c(CCC(=O)O)ccc1-c1cccs1 | 0.5%
Cc1ccc2ccc3cc(C(=O)N4CCN(c5ccccc5F)CC4)nc3c2[nH]1 | 2.8%
CCCc1cc(C(=O)Nc2c(C)nn(Cc3c(Cl)cccc3Cl)c2C)no1 | 11%
Cc1cc(C)cc(N2C(=O)CSC23C(=O)N(CC(=O)NC2CCCCC2)c2ccccc23)c1 (stereo unspecified) | -3.7%
COC(=O)[C@@H](NC(=O)C1CCCN(c2nc(C)c3ccc(C)cc3n2)C1)C(C)C (stereo partly specified) | 0.1%
COCCn1ccc2c(OCC(=O)Nc3cccc(C(F)(F)F)c3)cccc2c1=O | 1.4%
CCOC(=O)c1cccc(NC(=O)c2ccc3c(c2)nnn3CC)c1 | 3.0%
CCC12CN3CC(C)(CN(C1)C3c1c(C)[nH]c3ccccc13)C2=O (stereo unspecified) | -1.3%
Cc1ccc(NC(=O)CSc2nc3c(oc4ccccc43)c(=O)n2Cc2ccco2)cc1F | 0.8%
Cc1ccccc1C(=O)Nc1sc2c(c1C(=O)N1CCC(C)CC1)CCCC2 | 2.6%
CNC(=O)c1cc(-c2cccs2)on1 | -0.4%
CN(CCO)C(=O)c1cn(C2CCN(Cc3ccc(C(F)(F)F)cc3)CC2)nn1 | -0.1%
CCOc1ccc(CN(C(=O)c2cc(=O)c3cc(Cl)ccc3o2)C2CCS(=O)(=O)C2)cc1 (stereo unspecified) | 0.8%
Cc1cc(C)cc(OCC(=O)N2CCC(c3nc4ccccc4o3)CC2)c1 | 0.2%
O=C(O)c1cccc(-n2cnc3cccnc32)c1 | 0.6%
CC(C)(C)OC(=O)N1CCC(c2c(C(=O)NC3CCCCC3)cnn2-c2cccc(F)c2)CC1 | 0.7%
CCc1ccc(CNC(=O)c2cc3cc4ccc(OC)cc4nc3o2)cc1 | 0.9%
Cc1ccccc1NC(=O)c1c(NC(=O)Cc2ccccc2)sc2c1CCC2 | -0.2%
CCOC(=O)c1c(C)oc2nc(C)nc(NCCc3ccc(C)cc3)c12 | -0.8%
C(=C\c1ccnc2ccccc12)/c1cccnc1 | 0.1%
COc1ccc(-n2nnnc2C2CCN(S(=O)(=O)c3ccc(F)cc3Cl)CC2)cc1 | -0.5%
Fc1ccccc1-c1nc(-c2ccc(-c3nn[nH]n3)cc2)no1 | 0.4%
Cc1ccc2c(c1)CN(CCNC(=O)C(C)Oc1ccccc1)CC(C)O2 (stereo unspecified) | -1.0%
COC(=O)c1cc(NC(=O)c2cnc(SC)nc2-c2ccccc2)cc(C(=O)OC)c1 | 1.4%
Cc1cccc(OCCSc2nc3ccc(NC(=O)COc4ccccc4C)cc3s2)c1 | 0.5%
Cc1ccc(C)c(N2CCN(c3nc4ccccc4c4nc(-c5cccnc5)nn34)CC2)c1 | -0.2%
Cc1ccc(CN2CCc3nc(N4CCN(C)CC4)ncc3C2)cc1 | -0.2%
Cc1cccc(C(=O)N2c3ncnn3C3(CCCCC3)[C@@H]3CCCC[C@@H]32)c1 | -0.4%
Cc1ccc(NC(=O)CN2C(=O)C(c3ccc(F)cc3)=NC2(C)C)c(C)c1 | 0.7%
Cc1ccc(CNC(=O)C2COc3ccccc3C2)cc1 (stereo unspecified) | 1.1%
O=C(Cn1c(=O)n(Cc2ccco2)c(=O)c2ccccc21)Nc1cccc(F)c1 | 0.9%
COc1ccc(CCNS(=O)(=O)c2ccc(N3CCCCS3(=O)=O)cc2)cc1 | 2.8%
Cc1cccc(C)c1NC(=O)C1CCN(S(=O)(=O)c2cccc3nsnc23)CC1 | 1.4%
CCN(CC)CCNC(=O)C1CCCN(c2nnc(C)c3c(C)n(-c4ccc(Cl)cc4)nc23)C1 (stereo unspecified) | 1.2%

Next results:
Compound | PINK1 expr mod
C=CCC(CC=C)(CNC(=O)C(=O)Nc1ccc(C)cc1)c1ccccc1 | -0.1%
CN(C)C(=O)COc1ccccc1C(=O)OCC(=O)N(CCC#N)c1ccccc1 | 0.0%
COc1ccc(NC(=O)C2CCN(S(=O)(=O)c3cccc(-c4noc(C)n4)c3)CC2)cc1OC | 2.2%
CCCCOc1ccc(S(=O)(=O)Nc2ccc(-c3ccc(N4CCC(C)CC4)nn3)cc2)cc1 | 0.7%
Cc1ccc(C2CC(=O)n3nc(-c4cccc(C)c4)nc3S2)cc1 (stereo unspecified) | -3.2%
Clc1ccc(CCNc2nc3ccccc3c3nc(-c4ccccc4)nn23)cc1 | -0.4%
CCCCc1ccc(NC(=O)c2cc(-c3ccc(C)c(F)c3)on2)cc1 | 0.9%
O=C(NCCCc1ccccc1)C1CCN(C(=O)N2CCOc3ccc(Cl)cc32)CC1 | -2.6%
CN(C1CCCCC1)S(=O)(=O)c1ccc2c(c1)c(=O)c(C(=O)NCCc1ccccc1)cn2C | 2.7%
COc1cc(OC)c(N(C)C(=O)c2cn(C3CCCC3)c(=O)c3c2c2ccccc2n3C)cc1Cl | -0.3%
COc1ccc(Nc2cc(C(=O)NCCc3ccccc3)c3ccccc3n2)cc1OC | 4.6%
O=c1c2sccc2n(Cc2cc(=O)n3ccccc3n2)c(=O)n1-c1cc(F)ccc1F | -0.1%
Cc1ccc(CN2C(=O)N(c3ccc(C)c(Cl)c3)S(=O)(=O)c3ccccc32)cc1 | 6.5%
O=C(CSC1=Nc2ccccc2N=C(c2ccc(F)cc2)C1)NCc1ccc(Cl)cc1 | 2.7%
CC(=O)Nc1ccc(NC(=O)C(Cc2ccccc2)N2Cc3ccccc3C2=O)cc1 (stereo unspecified) | u
COc1ccc(OC)c(NC(=O)CN2CCCN(Cc3cc(C)ccc3C)S2(=O)=O)c1 | -0.4%
CCc1ccc(S(=O)(=O)c2cn(Cc3ccccc3)c3cc(F)c(F)cc3c2=O)cc1 | -1.3%
CCc1cccc(NC(=O)CSc2ncc3c(n2)-c2ccccc2N(CC)S3(=O)=O)c1 | 5.8%
CC1(C2CCN(Cc3c[nH]c4ccccc34)CC2)NC(=O)N(CCN2CCOCC2)C1=O (stereo unspecified) | 1.9%
Cc1ccc(C)c(N2CCN(C(=O)CCS(=O)(=O)c3cc(Br)cc4c3N(C(=O)C3CC3)CC4)CC2)c1 | -0.6%
CCOC(=O)c1c(C)[nH]c(C)c1S(=O)(=O)N1CCC(C(=O)NCc2ccc(F)cc2)CC1 | 3.0%
Cc1c(Cl)cccc1NC(=O)CSc1nc(=O)n(Cc2ccncc2)c2c1CCC2 | 1.4%
Cc1ccc(CNS(=O)(=O)c2ccc(C(=O)N(C)C)s2)cc1 | 0.4%
Cc1cccc(CSc2cn(CC(=O)N3CCCCC3)c3ccccc23)c1 | 0.2%
O=C(Nc1ccc2oc(-c3cccnc3)nc2c1)c1ccc(-c2ccc(OC(F)(F)F)cc2)o1 | u
Cc1cc(=O)n(CC(=O)N2CCCCC2)c2c1c(C)nn2C | 0.1%
Cc1ccc(Cl)cc1NC(=O)/C(C#N)=C\c1cn(Cc2ccc(F)cc2)c2ccccc12 | 1.2%
Cc1ccc(S(=O)(=O)N2CCCc3cc(NC(=O)c4ccccc4Cl)ccc32)cc1 | 1.4%
CCOC(=O)c1c(C)[nH]c(CCC(=O)NCc2cccc(C)c2)c1C | 1.5%
COc1ccc(OC)c(CNC(=O)CCCn2nc(C)c3c(C)n(-c4ccc(C)cc4)nc3c2=O)c1 | -0.7%
COc1ccc(Br)cc1Cn1nnc(C(=O)Nc2cccc(SC)c2)c1N | 0.4%
CCCOc1ccc(C(=O)Nc2ccc(Cl)c(-c3nc4ncccc4o3)c2)cc1 | 7.1%

Three compounds already listed, arranged by their value in PINK1 expr mod, lowest first:
compound | PINK1 expr mod
O=C1COc2ccc(-c3cc(-c4ccc(Cl)cc4)c4c(n3)-c3ccccc3OC4)cc2N1 | -0.5%
CCc1ccc(CNC(=O)c2cc3cc4ccc(OC)cc4nc3o2)cc1 | 0.9%
CN(C1CCCCC1)S(=O)(=O)c1ccc2c(c1)c(=O)c(C(=O)NCCc1ccccc1)cn2C | 2.7%

Structural class: those above with a tert-butyl group (2)
Compound | PINK1 expr mod
CCCN1C(C(=O)c2ccccc2)=C(OC(=O)C(C)(C)C)c2ccccc2S1(=O)=O | 3.9%
CC(C)(C)OC(=O)N1CCC(c2c(C(=O)NC3CCCCC3)cnn2-c2cccc(F)c2)CC1 | 0.7%

Not all compounds are listed, so the mix of outcomes need not match the whole.
